KCNQ2 block – KCNQ2 channel blockers in CHO-K1 cells – cell-based, FluxOR thallium flux, B-score, primary screen (AID 2156) | 20 min; hits give low values; only compounds with negative scores are shown here; some inactives read as strong as hits | B-score at 10 µM | actives 1.1% (n = 310,000);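 active means fluorescence ratio B-score at most minus 3 library SDs, with starting brightness B-score within 2 library SDs, cut at about -5.5 in these data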
Target sequence (O88943 whole entry, looked up): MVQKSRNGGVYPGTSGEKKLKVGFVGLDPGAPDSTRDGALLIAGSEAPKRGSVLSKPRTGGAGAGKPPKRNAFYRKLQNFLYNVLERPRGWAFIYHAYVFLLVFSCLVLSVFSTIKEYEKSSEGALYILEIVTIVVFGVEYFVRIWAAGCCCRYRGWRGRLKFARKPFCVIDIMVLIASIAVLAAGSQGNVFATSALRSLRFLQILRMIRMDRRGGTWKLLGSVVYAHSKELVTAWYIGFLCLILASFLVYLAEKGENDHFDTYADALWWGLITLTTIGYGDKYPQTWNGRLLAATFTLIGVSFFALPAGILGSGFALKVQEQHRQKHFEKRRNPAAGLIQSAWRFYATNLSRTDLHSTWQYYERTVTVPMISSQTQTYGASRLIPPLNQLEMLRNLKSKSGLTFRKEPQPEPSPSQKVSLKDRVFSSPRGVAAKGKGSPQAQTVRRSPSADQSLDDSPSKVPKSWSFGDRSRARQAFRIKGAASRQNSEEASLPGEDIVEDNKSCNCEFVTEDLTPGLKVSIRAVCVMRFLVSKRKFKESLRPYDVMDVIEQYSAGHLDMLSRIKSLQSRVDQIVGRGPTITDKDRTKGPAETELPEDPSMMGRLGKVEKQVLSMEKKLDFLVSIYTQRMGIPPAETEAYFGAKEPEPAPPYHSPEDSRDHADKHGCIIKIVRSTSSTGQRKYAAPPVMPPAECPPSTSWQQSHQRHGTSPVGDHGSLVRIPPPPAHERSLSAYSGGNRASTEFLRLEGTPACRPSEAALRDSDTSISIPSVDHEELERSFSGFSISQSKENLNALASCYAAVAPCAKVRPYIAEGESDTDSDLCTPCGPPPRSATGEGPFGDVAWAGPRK
KCNQ2 block baseline – also measured in KCNQ2 block; calls as there; B-score; measured here: initial fluorescence intensity artifact check;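 brightness before thallium and not channel activity; 0 = typical well and far values either way flag optical interference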
Numbers without * were called inactive; i = inactive.

SMILES,KCNQ2 block,KCNQ2 block baseline
CCCCn1nc2cc(C(=O)NCC34CC5CC(CC(C5)C3)C4)ccc2c1OC,i,-0.45
CCC(=O)c1c[nH]c(C(=O)NCc2cccnc2)c1,i,-0.09
Cc1cc(C)c2c(CC(=O)NC3CCS(=O)(=O)C3)coc2c1 (stereo not drawn),i,0.14
COc1ccc(CCn2c(NN=C(C)C)nc3c2c(=O)[nH]c(=O)n3C)cc1,i,-1.8
CCOC(=O)c1[nH]c(C)c(/C(O)=C2\C(=O)C(=O)N(CCN3CCOCC3)C2c2cccs2)c1C (stereo not drawn),i,1.4
Cc1nnc(SCc2cccs2)[nH]c1=O,i,1
Cc1cccc(OCc2nc(-c3ccc(-n4cccc4)cc3)no2)c1,i,-0.48
CCN(CC)S(=O)(=O)c1ccc(N2CCOCC2)c(NC(=O)c2cnccn2)c1,i,0.04
CCc1c(O)nc(SCC(=O)Nc2ccccc2)n(C(C)CC)c1=O (stereo not drawn),i,1.1
O=C(/C=C/c1ccccc1)N1CCN(c2c(Cl)cccc2[N+](=O)[O-])CC1,i,-1.4

3 structures from above, ordered by formula weight, rising:
SMILES,KCNQ2 block,KCNQ2 block baseline
Cc1cc(C)c2c(CC(=O)NC3CCS(=O)(=O)C3)coc2c1 (stereo not drawn),i,0.14
O=C(/C=C/c1ccccc1)N1CCN(c2c(Cl)cccc2[N+](=O)[O-])CC1,i,-1.4
CCN(CC)S(=O)(=O)c1ccc(N2CCOCC2)c(NC(=O)c2cnccn2)c1,i,0.04

Additional results.
SMILES,KCNQ2 block,KCNQ2 block baseline
O=C(N/N=C(\c1ccccc1)c1ccccn1)c1cccc([N+](=O)[O-])c1,i,-1.1
NC(=S)N/N=C/c1ccc(OC(=O)c2cccnc2)cc1,i,-0.25
CCCCN(C(=O)CCC(=O)Nc1cc(C)on1)C(C(=O)NC1CCCC1)c1ccccc1C (stereo not drawn),i,0.9
COc1cc2c(cc1NC(=S)Nc1cccc3ccccc13)oc1ccccc12,i,-0.73
CCC(=O)c1ccc(OCC(O)CN2CCN(c3ccccn3)CC2)cc1 (stereo not drawn),i,0.58
CCOC(=O)c1c(-c2ccc(F)cc2)csc1/N=C/N(C)C,i,0.07
CCC1(c2ccc(F)cc2)NC(=O)N(CC(=O)Nc2ccc(N3CCCCC3)cc2)C1=O (stereo not drawn),i,-0.2
O=c1c2ccccc2cnn1Cc1n[nH]c(=S)n1-c1cc(Cl)cc(Cl)c1,i,-0.82
CC1CCCN(S(=O)(=O)c2ccc(NC(=O)Cc3ccc(S(=O)(=O)N4CCOCC4)s3)cc2)C1 (stereo not drawn),i,-0.02
COCCC(=O)N1CCC(Oc2ccc(C(=O)N(C)Cc3cc(C)no3)cc2)CC1,i,-1.4
Cc1cc(N2CCC(C(=O)Nc3ccc(F)cc3)CC2)nc(-c2ccccc2)n1,i,-0.77
O=S(=O)(Nc1cc2nc3ccccc3nc2n1Cc1ccccc1)c1ccc(Cl)cc1,i,22
COC(=O)c1ccc(CN2CCC(Oc3cccc(C(=O)N4CCCC4)c3)CC2)cc1,i,0.17
CC(=O)NC(Cc1ccccc1)C(=O)OCC(=O)c1ccccc1 (stereo not drawn),i,0.99
Cn1c(SCC(=O)NCc2ccco2)nnc1-c1ccccc1,i,-0.02
CCCN1C(=O)c2cccc3c(N4CCCCC4)ccc(c23)C1=O,i,3.6
COc1cc(CNn2c(C)n[nH]c2=S)cc(Cl)c1OCc1ccc(F)cc1,i,-0.37
O=C(NCCCN1CCCC1=O)c1cccnc1,i,-0.11
O=C(O)CSc1nnc(Cc2ccccc2)n1Cc1ccccc1,i,-0.92
Cc1[nH]c(=O)c(C(=O)/C=C/c2ccccc2)c2c1CCCC2,i,0.12
CC(=O)N(c1ccccc1Cl)S(=O)(=O)c1ccc(Cl)cc1,i,-0.5
CCOCC(=O)Nc1c(C(=O)Nc2ccc(OC)cc2OC)oc2ccccc12,i,0.26
Cc1ccccc1OCC(=O)OCC(=O)N1CCCc2ccccc21,i,-0.63
O=C(NC(=S)NCCc1ccccn1)c1ccco1,i,2.4
O=C(CN1CCN(CC(=O)Nc2ccccc2Cc2ccccc2)CC1)Nc1ccccc1Cl,i,-0.09
CCCOC(=O)/C(=C\C=C\c1ccccc1)NC(=O)c1ccccc1,i,-0.27
CC1CCCCN1c1nc(-c2ccncc2)nc2ccccc12 (stereo not drawn),i,-0.07
COc1ccc(N2C(=O)/C(=C/c3ccc([N+](=O)[O-])cc3)C=C2c2ccccc2)cc1,i,0.27
COc1ccc(NC(=O)CNC(c2ccccc2)c2ccccc2)cc1Cl,i,0.09
Cc1ccc2c(c1)N(CC(=O)NC(C)CCc1ccccc1)C(=O)c1cccnc1O2 (stereo not drawn),i,0.2
CCN(CC)S(=O)(=O)c1ccc(O)c(C(=O)OCC(=O)Nc2cc(C)c(C)cc2[N+](=O)[O-])c1,i,0.32
Cc1ccc(NC(=O)COc2ccccc2)c(NC(=O)c2ccccc2C)c1,i,-0.14
CCN(CC)CCN(C(=O)C1=COCCO1)c1nc2cc3c(cc2s1)OCO3,i,0.78
Cc1cccc(C2c3[nH]c4ccccc4c3CCN2C(=O)c2ocnc2C)n1 (stereo not drawn),i,0.65
CC1(C)C(=O)Nc2ccccc2N1C(=O)COC(=O)COc1cccc(C(F)(F)F)c1,i,2
C=CCOc1ccc2cccc(/C=N/NC(=O)c3cc4cc([N+](=O)[O-])ccc4s3)c2c1,i,-0.16
O=C(CCC1CCCN(Cc2ccncc2)C1)NCc1ccc(F)c(F)c1 (stereo not drawn),i,0.49
Nc1ncc(Br)cc1S(=O)(=O)N1CCCCCC1,i,-0.95
CC1CN(CCOc2ccccc2-c2ccccc2)CC(C)O1 (stereo not drawn),i,0.02
COc1ccccc1N(C(=O)c1ccco1)C(C(=O)NC1CCCCC1)c1cc(OC)c(OC)c(OC)c1 (stereo not drawn),i,-0.87
CCN(CC)S(=O)(=O)c1ccc(Cl)c(NC(=O)c2ccc(C#N)cc2)c1,i,0.06
Cc1ccc(NC(=O)c2oc3ccccc3c2NC(=O)C2CCCO2)cc1C (stereo not drawn),i,-0.71
O=C(O)/C=C/c1cn(-c2ccccc2)nc1-c1cccc([N+](=O)[O-])c1,i,0.05
CC(CCc1ccccc1)NC(=O)CN1CCOc2ccccc21 (stereo not drawn),i,-0.01
N=C1C(c2ccccc2)=C(O)CN1c1cccc(S(N)(=O)=O)c1,i,3.5
N#Cc1ccc(NC(=O)Cn2cnc(S(=O)(=O)N3CCc4ccccc43)c2)cc1,i,0.74
CC(=O)c1cc(C(c2csc(C(C)=O)c2)c2csc(C(C)=O)c2)cs1,i,0.71
COc1ccc(S(=O)(=O)c2ccc(O)cc2)cc1,i,1.8
O=C(NCc1ccco1)C12CN(Cc3ccccc3)CC1C(c1cccc([N+](=O)[O-])c1)=NO2 (stereo not drawn),i,-0.68
COc1ccc(-c2c(C#N)c(N)n(N)c(=O)c2C#N)cc1Cl,i,-0.18

Later entries.
SMILES,KCNQ2 block,KCNQ2 block baseline
COc1cccc(-n2cnc3sc(C)c(C)c3c2=O)c1,i,-1.1
CCOC(=O)C1=C(C)Nc2nc(SCc3cccnc3)nn2C1c1ccc(OC)cc1 (stereo not drawn),i,-0.13
Cc1ccc(N2CC(=O)Nc3c(oc4nc(-c5ccccc5)cc(C)c34)C2=O)cc1,i,-1
COc1ccccc1NC(=O)C1CCCCN1S(=O)(=O)c1ccc(F)cc1 (stereo not drawn),i,1.6
O=C(N/N=C/c1ccc(OC(F)F)cc1)c1cccc(S(=O)(=O)N2CCOCC2)c1,i,-0.04
CCCCN1c2cc(C)c(O)cc2C(C(=O)OCC)C1C (stereo not drawn),i,-1.1
COc1ccc(C2=NCC(CSc3nnnn3C)S2)cc1 (stereo not drawn),i,-0.27
CC1C(=O)CC(c2ccc([N+](=O)[O-])cc2)NC1c1ccc([N+](=O)[O-])cc1 (stereo not drawn),i,0.63
O=c1[nH]c2cc3c(cc2cc1C(c1nnnn1CC1CCCO1)N1CCCCCC1)OCO3 (stereo not drawn),i,-0.89
O=C1CCCCC(=O)c2ccccc2N1,i,2.2
O=C(CN(Cc1ccco1)S(=O)(=O)c1cccs1)Nc1ccccc1C(F)(F)F,-7*,1.2*
O=C1C(=O)N(CCS(=O)(=O)c2ccccc2)c2ccc(F)cc21,i,-0.5
CCCCCC1CC(CC/C(C)=N/NC(N)=O)C(=O)O1 (stereo not drawn),i,0.35
Cc1ccc(-c2nc(N)sc2CC(=O)OCC(=O)NCC2CCCO2)cc1 (stereo not drawn),i,2.3
Cc1oc(-c2ccccc2Cl)nc1CSc1nc2c(c(=O)[nH]1)CCC2,i,3.7
COCCNC(=O)CN(c1cccc(OC)c1)S(=O)(=O)c1ccc(C)cc1,i,0.01
Cc1ccc(-n2c(SCC(=O)NCc3cccs3)nnc2-c2ccoc2C)cc1,i,2.3
CC(C)C[C@H](NC(=O)Nc1ccccc1F)C(=O)O,i,-0.29
COc1ccc(N=Nc2ccc(N)nc2N)cc1,i,1.9
O=C1c2ccccc2C(=O)N1CC(=O)N1c2ccccc2Sc2ccccc21,i,0.06

Another view of 4 compounds above:
Order of values: KCNQ2 block, KCNQ2 block baseline
Cc1ccc(-n2c(SCC(=O)NCc3cccs3)nnc2-c2ccoc2C)cc1
  i, 2.3
CC(C)C[C@H](NC(=O)Nc1ccccc1F)C(=O)O
  i, -0.29
COc1ccc(N=Nc2ccc(N)nc2N)cc1
  i, 1.9
O=C1c2ccccc2C(=O)N1CC(=O)N1c2ccccc2Sc2ccccc21
  i, 0.06

(cont.)
SMILES,KCNQ2 block,KCNQ2 block baseline
COc1ccc(N2CCN(C(=O)COC(=O)CNC(=O)c3ccccc3)CC2)cc1,i,0.1
O=C(CCCCCCCCCCC(=O)NCc1cccnc1)NCc1cccnc1,i,1.7
O=C1OC(c2cccs2)=N/C1=C\c1ccc(-c2cccc(Cl)c2)o1,i,4.6
COc1ccc(-n2nc(C(=O)NCC(=O)N3CCN(c4ccccc4)CC3)c3ccccc3c2=O)cc1OC,i,0.03
CCN(CC)S(=O)(=O)c1ccc2c(c1)c(=O)c(C(=O)NCCCN(C)c1ccccc1)cn2C,i,-0.03
Cc1c(C(=O)Nc2ccc(F)cc2)oc2ccc(S(=O)(=O)N3CCC4(CC3)OCCO4)cc12,i,-1.1
NC(=O)c1oc2ccccc2c1NC(=O)c1ccc([N+](=O)[O-])o1,i,-0.69
CCNC(=O)COC(=O)c1cc(S(=O)(=O)N2CCCCC2)ccc1C,i,-0.07
O=C(CN1CCCCC1)N1CCCc2c1c(=O)oc1ccc(OCc3ccccc3)cc21,i,0.72
Cc1ccc2nc(Cl)c(-c3ccccc3)cc2c1,i,2.1
CCOC(=O)c1ccccc1NS(=O)(=O)c1cnn(CC)c1C,i,-0.6
O=C(CCc1ccccc1Cl)Nc1ccc(S(=O)(=O)N2CCOCC2)cc1,i,0.18
Cc1ccc2nc(NC(=O)COC(=O)c3ccccn3)sc2c1,i,-0.01
CCCCC[C@H]1CN(C2CCCCC2)C(=O)[C@@H]1CC(=O)NCc1ccc(OC)cc1,i,-2.4
COc1ccccc1CCC(=O)NNC(=O)c1ccncc1,i,-0.16
CO/N=C(/CN1CCCCC1)c1ccc(Cl)cc1,i,1.1
COc1ccccc1CN(C)C(=O)c1ccc2c(c1)NC(=O)CS2,i,1.9
COc1cccc(C(=O)N(c2ccc(OC)cc2OC)C2C=CS(=O)(=O)C2)c1 (stereo not drawn),i,1.5
O=C(O)CCC(=O)Nc1ccc(/C=C/C(=O)C2CC2)cc1,i,1.1
Cc1cc(S(=O)(=O)NCc2ccccc2)ccc1OCC(=O)Nc1cccc([N+](=O)[O-])c1,i,0.76

The final three compounds of the part before come first, to join the parts.
SMILES,KCNQ2 block,KCNQ2 block baseline
COc1cccc(C(=O)N(c2ccc(OC)cc2OC)C2C=CS(=O)(=O)C2)c1 (stereo not drawn),i,1.5
O=C(O)CCC(=O)Nc1ccc(/C=C/C(=O)C2CC2)cc1,i,1.1
Cc1cc(S(=O)(=O)NCc2ccccc2)ccc1OCC(=O)Nc1cccc([N+](=O)[O-])c1,i,0.76
CN(CC1CCCN(CCc2cccc(C(F)(F)F)c2)C1)C(=O)c1cc2ccccc2o1 (stereo not drawn),-7*,-0.74*
Cc1ccc(C(=O)NNC(=O)CSc2nnc3c(n2)[nH]c2ccc(F)cc23)cc1,i,0.52
Cc1coc2c(C)c3oc(=O)c(CCC(=O)NCCCn4ccnc4)c(C)c3cc12,i,2.1
O=C(COc1ccc(S(=O)(=O)N2CCCC2)cc1)NCc1cccnc1,i,-2
COc1ccc(S(=O)(=O)N2CCOC2CNC(=O)C(=O)NCc2ccncc2)cc1 (stereo not drawn),i,-0.14
CC(=O)Nc1cc2c3c(c1)CC(=O)N3CCC2,i,-0.72
Cc1nc(=O)c(-c2ccccc2)c(C)n1-c1ccc(C(=O)O)cc1,i,1.5
Cn1c(NC(=O)c2cccc(C(F)(F)F)c2)cc(=O)n(C)c1=O,i,-1.5
CCOC(=O)c1c(NC(=O)C2=COCCO2)sc2c1CCN(C(=O)OC)C2,i,-2.1
CCCCn1c(SCC(=O)c2ccc(OC)cc2OC)nc2cc(S(N)(=O)=O)ccc21,i,-0.27
CCOC(=O)C1CCCN(c2nc3ccccc3nc2C(C#N)C(=O)NCc2ccccc2)C1 (stereo not drawn),i,1.1
Cc1ccc(S(=O)(=O)N[C@H](C(=O)Oc2ccc3c(C(F)(F)F)cc(=O)oc3c2)c2ccccc2)cc1,i,3.9
CCNC(=O)c1sc(-c2ccccc2)nc1C,i,-0.3

Compound activity deposited in PubChem BioAssay by Johns Hopkins Ion Channel Center.

Only part of the results is shown, so the mix of outcomes need not match the whole.
